Assay outcomes as filed in PubChem BioAssay.
Sa growth 42C: inhibitors of Staphylococcus aureus growth at 42 °C; S. aureus RN4220 growth, OD600, 20 h; stronger effect = lower value; AID 720641; relative growth, % (no concentration beside the values); 170,000 tested, 0.53% active;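 active = growth at 42 °C up to 50% and 20 or more points under that at 30 °C, or under 10% at both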;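 note: 300 nL library stock went into each well; scaled to the means of positive and negative controls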
HCMV UL50-53 inh: disrupts HCMV UL50-UL53 complex binding; HTRF UL50-UL53 interaction, normalized percent inhibition; inhibition, % (concentration not given with the values); 190,000 tested, 0.15% active; AID 1918969;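 active = both replicates at 50% or more, plus weaker picks with an unusually low signal ratio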;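 note: stock transfer was 100 nL into about 20 µL; 0% = negative control wells and 100% = wells with untagged competitor protein; inactives centre near -12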
GIV Gai3 FP: GIV-Galpha-i interaction inhibition. P08753. Galpha-i3/FITC-GIV peptide fluorescence polarization, 90 min; stronger effect = lower value; scaled: aluminum fluoride 0%, vehicle 100%. percent of control (FP), % (concentration not given with the values). 210,000 tested, 0.42% active. AID 1224905;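 active = replicate mean at 85% of control or lower, very high polarization wells dropped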;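 note: wells of about 15 µL received 100 nL stock; the first replicate is given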
Target sequence (P08753 whole entry, looked up): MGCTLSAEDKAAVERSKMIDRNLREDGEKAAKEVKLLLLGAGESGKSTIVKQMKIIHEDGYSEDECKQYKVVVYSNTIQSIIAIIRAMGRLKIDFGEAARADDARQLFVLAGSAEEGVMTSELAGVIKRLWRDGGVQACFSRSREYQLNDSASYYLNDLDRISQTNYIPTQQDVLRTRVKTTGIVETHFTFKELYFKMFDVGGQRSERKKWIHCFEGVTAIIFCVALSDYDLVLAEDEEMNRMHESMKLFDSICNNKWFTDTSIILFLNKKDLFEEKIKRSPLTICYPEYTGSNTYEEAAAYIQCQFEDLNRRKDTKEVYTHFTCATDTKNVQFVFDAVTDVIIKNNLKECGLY
Sa growth 42C second temp: second read-out of Sa growth 42C, no call of its own (marks repeat the call); relative growth, %; measured here: growth at 30 °C;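 optical density after 20 h as mean of two plates; 100% = untreated growth and lower means inhibition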
Starred values were filed as active, the others as inactive; . = no result given; & = joins results of further samples. The order is random; 0.79% or so of the library scored in one or more.

SMILES | Sa growth 42C | Sa growth 42C second temp | HCMV UL50-53 inh | GIV Gai3 FP
O=C(Nc1ccc(-c2ccccc2)cc1)c1ccc(Br)o1 | 101 | 80 | . | 99
CC(=O)Nc1nc(C2COc3ccccc3O2)cs1 (stereo unspecified) | 104 | 87 | -7 | 102
CC(=O)N1CCCSc2ccc(S(=O)(=O)NCCC3=CCCCC3)cc21 | . | . | -1 | 109
Cc1ccc(NS(=O)(=O)c2ccc(-c3cc(C)no3)cc2)c(C)c1 | 106 | 89 | . | 97
COC(=O)Cn1c(Cc2ccccc2)nc2ccccc21 | 78 | 85 | -6 | .
Cc1ccc(Cl)cc1N1CCN(C(=O)c2cnn(C)c2C2CCN(C(=O)OC(C)(C)C)CC2)CC1 | 117 | 89 | . | 108
C/C1=C\C(O)C(C(C)C)C(O)C/C(C)=C/CC1 (stereo unspecified) | 87 | 82 | -14 | .
CCc1nnc2c(Nc3cccc(F)c3)nc3ccc(C(=O)c4ccccc4)cc3n12 | 105 | 94 | -6 | 110
Cc1cccc(OCc2nn[nH]n2)c1C | 100 | 73 | -20 | 103
CCOc1ccc(CCNC(=O)CCCc2nnc3n(CC)c(=O)c4sccc4n23)cc1 | 89 | 83 | . | 99
Cc1c(C(=O)N2CCN(c3ccccc3)CC2)sc2nc[nH]c(=O)c12 | 101 | 87 | -8 | 104
O=C(CSCc1nnc(C(=O)Nc2ccccc2)s1)NC1CCN(Cc2ccccc2)CC1 | . | . | -41 | 105
COC(=O)NCc1ccccc1 | 121 | 93 | 39 | 108
O=C(O)/C=C1\SC(=O)N(Cc2ccccc2)C1=O | 64 | 40 | -111 | 96
c1ccc(-c2nc(Cc3nc4ccccc4[nH]3)no2)cc1 | 94 | 96 | -14 | 121
Cc1ccc2nc(COC(=O)C3CCN(c4ccc(C(F)(F)F)cn4)CC3)cc(=O)n2c1 | 96 | 97 | -48 | .
CCOc1ccc(NC(=O)N(C(C)C)C2CCN(C(C)=O)CC2)cc1 | 108 | 89 | . | 104
CC(=O)NNc1ncnc2c1cnn2-c1ccccc1 | 118 | 86 | . | 102
O=C1C(Oc2ccccc2)C(c2ccc3c(c2)OCO3)N1c1cccc(Cl)c1 (stereo unspecified) | . | . | -14 | 105
CC1CCN(C(=O)Cn2cnc3c(oc4ccccc43)c2=O)CC1 | . | . | -13 | 106
Cc1ccc(OCC(=O)n2c(SCc3ccc(F)cc3)nc3ccccc32)cc1 | 117 | 95 | . | 93
CCN1CCCC1CNS(=O)(=O)c1ccc(F)cc1F (stereo unspecified) | 104 | 97 | -6 | .
CC(=O)NCCCCCCNC(C)=O | 21* | 83* | -24 | .
C=CCn1c(SCC(=O)NC(=O)C2COc3ccccc3O2)nnc1-c1ccccc1 (stereo unspecified) | 85 | 91 | -18 | .
CN(C)c1ccc(/C=C2\CCCC3C2=NN(C(=O)c2ccco2)C3c2ccc(N(C)C)cc2)cc1 (stereo unspecified) | 111 | 102 | -5 | 172
O=C(Nc1cccc(-c2ccc(N3CCCC3)nn2)c1)c1ccccc1 | 101 | 60 | -112 | 108
O=C1/C(=C/c2ccccc2)Nc2ccccc21 | 95 | 73 | -72 | -102*
CC1CC(C)CN(S(=O)(=O)c2ccc(/C(O)=C(\C#N)c3nc4ccccc4s3)cc2)C1 (stereo unspecified) | 54 | 41 | -24 | 106
COc1ccc(C(=O)OCC(N)=O)cc1OC | 93 | 88 | -22 | .
CCOC(=O)/C(C)=N/Nc1ccc(F)cc1 | 97 | 92 | -42 | 107
CC1=C(C(=O)Nc2cccc(F)c2)C(c2ccc(N(C)C)cc2)C2=C(CC(c3ccccc3)CC2=O)N1 (stereo unspecified) | . | . | 12 | 104
COCCOC(=O)C1=C(C)NC2=C(C(=O)CC(c3ccc(Cl)cc3)C2)C1c1ccc(N(C)C)cc1 (stereo unspecified) | . | . | -28 | 104
Cc1ccc(-c2onc3ccc(Br)cc23)cc1 | 97 | 93 | -6 | 105
CCCCOC(=O)c1ccc(Nc2nc3ccccc3c3nnc(C)n23)cc1 | 83 | 90 | . | 102
O=C(CCN1C(=O)c2ccccc2C1=O)NCc1ccco1 | 73 | 76 | . | 106
CN(C)CCNC(=O)c1ccc2c(c1)OCO2 | 106 | 95 | -6 | 106
CCOc1cc(C2=NS(=O)(=O)c3ccccc3N2)cc(OCC)c1OCC | 88 | 91 | -5 | 99
COC(=O)c1c(C)c(=O)[nH]c2ccccc12 | 112 | 58 | . | 102
CNC(=S)N(CCO)Cc1cc2cc3c(cc2[nH]c1=O)OCCO3 | 84 | 70 | -28 | 98
CCC1C(=O)C(C)(C)C(=O)OC1c1ccc(Cl)cc1 (stereo unspecified) | 106 | 91 | 24 | 101
CC(C)C(O)(C#CCN1CCOCC1)C(C)C | 83 | 79 | -18 | 99
COCc1cc(C)nc2sc(C(=O)Nc3ccccc3O)c(N)c12 | 99 | 86 | -22 | 111
CC(C)COc1ccc(C(=O)Nc2nnc(S(=O)(=O)N(C)Cc3ccco3)s2)cc1 | 100 | 80 | 1 | 103
COc1ccccc1CN(Cc1cccs1)C(=O)C1CCCN1C(=O)c1cccs1 (stereo unspecified) | 88 | 92 | -18 | .
CN(C(=O)c1ccn[nH]1)C1CC(C)(C)N(C)C(C)(C)C1 | 116 | 93 | -3 | .
CC(=Nc1ccc(Cl)cc1)c1ccsc1 | 104 | 88 | -2 | 101
CC(Sc1nnc(COc2ccccc2)n1C)C(=O)Nc1nccs1 (stereo unspecified) | 97 | 80 | -15 | 100
CCCCSc1nnc2c(n1)OC(C1CC=C(C)CC1)Nc1ccccc1-2 (stereo unspecified) | . | . | -4 | 106
COc1cc2c(=O)n(Cc3ccc(C(=O)NC(C)C)cc3)c(=O)n(CC(=O)NC3CCCCC3)c2cc1OC | . | . | -12 | 107
Cc1ccc(NC(=O)CCCn2nc(C)c3c(C)n(-c4ccccc4)nc3c2=O)cc1Cl | 86 | 91 | . | 101

Three entries from above, sorted by molar mass, highest first:
SMILES | Sa growth 42C | Sa growth 42C second temp | HCMV UL50-53 inh | GIV Gai3 FP
COc1cc2c(=O)n(Cc3ccc(C(=O)NC(C)C)cc3)c(=O)n(CC(=O)NC3CCCCC3)c2cc1OC | . | . | -12 | 107
Cc1ccc(NC(=O)CCCn2nc(C)c3c(C)n(-c4ccccc4)nc3c2=O)cc1Cl | 86 | 91 | . | 101
COc1ccccc1CN(Cc1cccs1)C(=O)C1CCCN1C(=O)c1cccs1 (stereo unspecified) | 88 | 92 | -18 | .

(list continues)
SMILES | Sa growth 42C | Sa growth 42C second temp | HCMV UL50-53 inh | GIV Gai3 FP
O=C(NC1CCCC1)c1ccc2c(=O)n(CC3CCCO3)c(SCC(=O)c3c[nH]c4ccccc34)nc2c1 (stereo unspecified) | . | . | 7 | 117
O=C(CSc1cc(C(F)(F)F)c2cc3c(cc2n1)OCO3)NCCN1CCOCC1 | 90 | 84 | -17 | 106
O=C1CCCc2cc(S(=O)(=O)N3CCCC3=O)ccc2N1 | 102 | 101 | -7 | 108
CC(C)(C)P(=NC(=S)NCc1ccccc1)(N1CCOCC1)N1CCOCC1 | 77 | 82 | -28 | .
Cc1ccc(Cn2c(SCc3ccc(C(=O)NC4CCCCC4)cc3)nc3ccncc32)cc1 | 100 | 84 | -29 | 96
CCOc1ccccc1-c1nc(Cn2nnc(C(=O)Nc3ccc(OC)cc3)c2C)c(C)o1 | . | . | 16 | 101
O=C(Oc1ccc(N(Cc2ccco2)C2=NS(=O)(=O)c3ccccc32)cc1)c1ccco1 | 107 | 80 | -34 | 106
OCCCc1nc2ccccc2n1CCCCOc1ccccc1 | 105 | 92 | . | 99
Cc1ccc(CNS(=O)(=O)c2ccc3oc(=O)c4ncn(C)c4c3c2)cc1 | 99 | 101 | 19 | 104
CC(=O)OC(C(=O)NCc1ccco1)c1ccncc1 (stereo unspecified) | 109 | 89 | -5 | 104
O=C(/C=C/c1ccccc1)Nc1cc2c(ccc3ccccc32)oc1=O | 108 | 108 | . | 105
Cc1ccc(NC(=S)Nc2cccnc2)c(S(=O)(=O)N2CCOCC2)c1 | 90 | 96 | -15 | .
CCCCN(C)S(=O)(=O)c1ccc2c(c1)OCCN2C(C)=O | 91 | 80 | . | 98
O=C(Nc1ccc2c(c1)OCCO2)C1CC(=O)N(CCc2c[nH]c3ccc(F)cc23)C1 (stereo unspecified) | . | . | 18 | 109
CC(C)Cn1c(=O)c2sccc2n2c(CCCC(=O)NCCc3ccc(S(N)(=O)=O)cc3)nnc12 | . | . | -22 | 99
CC(C)NC(=O)C1COc2ccccc2O1 (stereo unspecified) | 91 | 87 | 2 | .
CC(C)CC(=O)NC1(C(F)(F)F)NC(=O)N(CC(C)C)C1=O (stereo unspecified) | 99 | 92 | -9 | 107
NC(=O)CSc1nnc(Cc2cccs2)n1C1CCCCC1 | 97 | 95 | -27 | .
COc1ccc(OC)c(NC(=O)c2cc(=O)c3c(C)cc(C)cc3o2)c1 | 94 | 88 | -14 | 110
CCOC(=O)c1cc(-c2ccc(F)cc2)n(CC(=O)NCCN(C)C)c1C | 99 | 89 | -12 | 103
Cc1nc2c(c(C)nn2-c2ccccc2)c(C)c1CCC(=O)NCCN1CCC(Cc2ccccc2)CC1 | . | . | 4 | 104
Cc1cc(C(F)F)n2nc(C(=O)Nc3ccc(C)c(C)c3)nc2n1 | 99 | 106 | 8 | 104
CCCCSc1nc2c3cc(OC)ccc3n(C)c2c(=O)n1CCO | . | . | -12 | 96
COc1cc(/C=N/O)cc(OC)c1OC | 113 | 92 | -10 | .
CCc1ccc2occ(CC(=O)Nc3ccc(Cl)cc3)c2c1 | 117 | 89 | . | 99
CC1CCC(NC(=O)Cn2ncn3c(cc4sccc43)c2=O)CC1 (stereo unspecified) | 117 | 85 | . | 102
Cc1ccc(NC(=O)C2CCCN2S(=O)(=O)c2cccc3cccnc23)cc1 (stereo unspecified) | 98 | 81 | -40&-14 | 98&97
CCOC(=O)c1cc2n(n1)CC(C)(C(=O)NC1CCCCC1)N(c1ccc(F)cc1F)C2=O (stereo unspecified) | . | . | -1 | 94
CSc1nc(Nc2ccc(F)cc2)cc(-c2ccccc2)n1 | 67 | 66 | -7 | 111
CC(C)(C)c1ccc(C2Oc3ccc(Br)cc3C3CC(c4ccccc4)=NN32)cc1 (stereo unspecified) | . | . | -1 | 102
CC1CCN(C(=O)CN2N=C(c3ccccc3)CCC2=O)CC1 | 110 | 85 | . | 103
O=C(O)/C(=C\c1cccs1)c1ccccc1 | 143 | 109 | -25 | .
CN(Cc1cccs1)C(=S)SCc1cccs1 | 76 | 89 | -10 | .
Cc1cc(C)c2nc(NC(=O)c3ccc(C#N)cc3)sc2c1 | 86 | 86 | . | 94
CCOC(=O)c1nnn(-c2nc(N3CCCC3)nc(N3CCCC3)n2)c1-c1ccccc1 | 95 | 85 | -28 | 99
CCOC(=O)CSc1nc2ccc(Br)cc2c(=O)n1C | 108 | 77 | -10 | 105
CCCN(CCC)S(=O)(=O)c1ccc2c(c1)n(C)c(=O)c(=O)n2C | . | . | -24 | 100
CN(C)CCn1c(=O)c2c(ncn2CC(O)CO)n(C)c1=O (stereo unspecified) | . | . | -23 | 98
NCCCc1ccccc1Cl | 112 | 84 | -10 | 99
c1ccc(N2CCN(Cc3cccn3-c3nnc(N4CCN(C5CCCCC5)CC4)s3)CC2)cc1 | 96 | 87 | . | 111
Cc1cccc(NC(=O)N2CCN(c3cc(=O)n4nc(-c5ccccc5C)sc4n3)CC2)c1 | . | . | -17 | 104
O=C(Cn1nc(-c2ccccc2)c2ccccc2c1=O)NCCO | 92 | 84 | -23 | 100
CCN(c1ccccc1)S(=O)(=O)c1ccc2[nH]cc(C(=O)NCCOC)c(=O)c2c1 | 94 | 87 | -5 | 99&111
CCOc1ccc(-n2nc3cc(C)c(NC(=O)c4ccc(Br)o4)cc3n2)cc1 | 97 | 54 | -11 | 97
Cc1ccc(NC(=O)c2ccc3c(c2)NC(=O)CO3)cc1C | . | . | -8 | 96
Cc1ccc(C(C)(C)C)cc1S(N)(=O)=O | 119 | 79 | -25 | .
CCOc1ccc(CCNC(=O)Nc2ccc(C)c(C)c2)cc1OCC | 95 | 98 | . | 103
CCCNc1ccccc1OCC | 97 | 92 | -14 | 101
Cc1c(Cl)cccc1NN | 89 | 66 | -3 | .
CCOC(=O)C1=C(C)N=c2s/c(=C\c3ccc(OC)cc3OC)c(=O)n2C1c1ccc2c(c1)OCO2 (stereo unspecified) | . | . | 23 | 104

One compound at a time (already shown). Screens in order: Sa growth 42C | Sa growth 42C second temp | HCMV UL50-53 inh | GIV Gai3 FP
`Cc1ccc(C(C)(C)C)cc1S(N)(=O)=O` reads 119 | 79 | -25 | .
`CCCNc1ccccc1OCC` reads 97 | 92 | -14 | 101
`CCN(c1ccccc1)S(=O)(=O)c1ccc2[nH]cc(C(=O)NCCOC)c(=O)c2c1` reads 94 | 87 | -5 | 99&111
`CCOC(=O)C1=C(C)N=c2s/c(=C\c3ccc(OC)cc3OC)c(=O)n2C1c1ccc2c(c1)OCO2` (stereo unspecified) reads . | . | 23 | 104
`CCOc1ccc(-n2nc3cc(C)c(NC(=O)c4ccc(Br)o4)cc3n2)cc1` reads 97 | 54 | -11 | 97

Exported as a markdown table: entries from further up.
| Compound | Sa growth 42C | Sa growth 42C second temp | HCMV UL50-53 inh | GIV Gai3 FP |
| --- | --- | --- | --- | --- |
| CC(=O)NCCCCCCNC(C)=O | 21* | 83* | -24 | . |
| C=CCn1c(SCC(=O)NC(=O)C2COc3ccccc3O2)nnc1-c1ccccc1 (stereo unspecified) | 85 | 91 | -18 | . |
| CN(C)c1ccc(/C=C2\CCCC3C2=NN(C(=O)c2ccco2)C3c2ccc(N(C)C)cc2)cc1 (stereo unspecified) | 111 | 102 | -5 | 172 |
